HPGD inh: inhibitors of human 15-hydroxyprostaglandin dehydrogenase (HPGD); 150,000 tested, 4.3% active; Potency, µM, for the others: at the top dose activity change, negative = inhibition, actives largely listed as inhibitors; purified HPGD, NADH fluorescence kinetic, PGE2 substrate; active = well fitted inhibition curve with a large enough effect (not every such curve was filed as active); inconclusive = small, poorly fitted or top-dose-only effect, or another doubt; inactive = no such curve, though single readings can be large or run the other way;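 further: top concentration of the series not given in the record; plate controls included wells without enzyme; inactives centre near -10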
Target sequence (P15428 whole entry, looked up): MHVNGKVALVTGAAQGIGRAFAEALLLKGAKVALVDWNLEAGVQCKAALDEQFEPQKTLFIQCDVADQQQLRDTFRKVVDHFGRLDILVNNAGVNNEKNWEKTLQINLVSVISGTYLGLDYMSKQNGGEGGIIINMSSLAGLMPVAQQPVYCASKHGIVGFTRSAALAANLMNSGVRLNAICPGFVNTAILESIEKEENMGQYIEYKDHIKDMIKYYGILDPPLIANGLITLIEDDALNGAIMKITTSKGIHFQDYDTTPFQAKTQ
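NADH formation kinetics: reaction with 30 uM PGE2 and 1 mM NAD+ (final), 20 nM enzyme, Tris-HCl pH 8 with Tween 20, after 15 min compound preincubation at room temperature. Fluorescence change, last versus first of five reads.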
* marks the source's active call; other numbers are inactive results; i = inactive; ? = inconclusive. On the % scale 0 is the no-effect control and ±100 the full control effect; potency means the concentration at half of the fitted maximal effect. The list is partial (hit frequency here may not be typical).

HPGD inh	molecule
-5%	CCOc1ccc(N(CC)S(=O)(=O)c2ccc3c(c2)oc(=O)n3C)cc1
-9%	Cc1cc(C)cc(N2C(=O)C3NN=C(C(=O)OCc4ccccc4)C3C2=O)c1 (stereo unspecified)
-11%	CCC(NC(=O)c1cccc(Cn2nc(C)c([N+](=O)[O-])c2C)c1)c1ccc(C(C)C)cc1 (stereo unspecified)
-9%	Cc1ccc(S(=O)(=O)N2CCOCC2)c2nsnc12
-23%	O=C(OC(C(=O)Nc1cccc(C(F)(F)F)c1)c1ccccc1)C1CCCCC1 (stereo unspecified)
?	CN1CCN(c2ncc3nc(CCc4ccccc4)c(=O)n(CCC#N)c3n2)CC1
-14%	CCCOc1ccc(C(CC(=O)O)NC(=O)c2cccs2)cc1 (stereo unspecified)
-4%	Cc1ccc(OCc2nc3ccccc3[nH]2)cc1
?	CSc1ccc2[nH]c(=O)cc(C)c2c1
-6%	COc1cc(CNC2CCCCCC2)cc(OC)c1O
?	Cc1nc2oc3c(NCc4ccccn4)ncnc3c2c2c1COC(C)(C)C2
-9%	O=C(/C=C/c1ccc(N2CCCCC2)c([N+](=O)[O-])c1)c1ccc(S(=O)(=O)N2CCCC2)cc1
-6%	CCOC(=O)N1CCN(C(=O)CN(C)S(=O)(=O)c2ccc(OC)c(OC)c2)CC1
-6%	COCC(C)n1c(SCc2nc(N)nc(Nc3ccccc3C)n2)nc2ccccc2c1=O (stereo unspecified)
-2%	COC(=O)c1cc(Br)c(=O)n(CCN2CCCCC2)c1
?	C=CCOc1c(Cl)cc(CNc2ccc(N(C)C)cc2)cc1OC
-3%	CCN(CC)C(=O)CN(c1ccc(F)c(Cl)c1)S(C)(=O)=O
-4%	COc1ccc(Oc2ncc3ncc(=O)n(CCc4ccccc4)c3n2)cc1
-20%	Cc1cnc(C(=O)Nc2ccccc2F)cn1
-10%	CCOC(=O)N1CCN(CC(O)COCc2ccccc2)CC1 (stereo unspecified)
-11%	CCOc1cc(CNCCc2ccccc2)ccc1OCC(=O)NC(C)(C)C
-28%	COc1ccc(-c2cnn3c(N)c(S(=O)(=O)C(C)(C)C)cnc23)cc1
-2%	COC(=O)C(NC(=O)C(NC(=O)c1ccccc1)C(C)C)C(C)C (stereo unspecified)
-20%	COC(=O)C1=C(C(=O)c2ccccc2)C(c2ccc(OC)c(OC)c2)Nc2nnnn21 (stereo unspecified)
14µM*	CCN1CCN(C(=O)c2ccc(CN(c3ccccc3)S(=O)(=O)c3ccccc3)cc2)CC1
?	c1ccc2nc3[nH]cnc3nc2c1
-6%	COC(=O)Cn1cnc2c1c(=O)n(C)c(=O)n2C
-26%	Cc1nn(-c2ccccc2)c(Cl)c1C1C(C#N)=C(N)OC2=C1C(=O)CCC2 (stereo unspecified)
-8%	CCOC(=O)c1c(NC(=O)CCC(=O)N2CCOCC2)sc2c1CC(C)(C)OC2
-22%	O=C(/C(C=Nc1cccc(C(F)(F)F)c1)=C(/O)c1ccco1)C(F)(F)F
-1%	CC1=C(C(=O)Nc2ccc(C)cc2)C(c2ccco2)NC(=O)N1 (stereo unspecified)
-20%	CS(=O)(=O)N(CC(=O)N1CCN(c2ccccc2F)CC1)C1CCCCC1
-24%	FC(F)(F)c1cccc(Oc2nc(-c3ccccc3)nnc2C(F)(F)F)c1
-1%	CCCCCO
-8%	O=C(Cc1ccccc1[N+](=O)[O-])NCc1ccc2c(c1)OCO2
-6%	C/C(CC1(O)/C(=N/O)CCc2nonc21)=N\O (stereo unspecified)
2%	CC(=O)Nc1cccc2ncccc12
-12%	C/C(CC(=O)Nc1ccccc1[N+](=O)[O-])=N\NC(=O)COc1ccccc1C
-10%	Cc1ccccc1OCC(=O)N/N=C/c1cccc(Oc2ccc([N+](=O)[O-])cc2[N+](=O)[O-])c1
-28%	CC1CC2=C(NC(=S)NC2c2ccc(F)cc2)/C(=C/c2ccc(F)cc2)C1 (stereo unspecified)
-4%	CCOC(=O)Nc1ccc(S(=O)(=O)N2CCOCC2)cc1
-3%	C=Cc1ccccc1C=C
?	COc1ccc(OC)c(/C=C(\NC(=O)c2ccccc2)C(=O)N/N=C/c2ccc(C)s2)c1
-14%	Cc1ccc(C(C#N)c2ccc(C(=O)c3ccc(F)cc3)cc2)cc1 (stereo unspecified)
-11%	Cn1c(=O)[nH]c(NC2CCCCC2)c([N+](=O)[O-])c1=O
-19%	CCCCn1c(SCC(=O)/C(C#N)=C(\C)N)nc2ccccc2c1=O
-13%	COc1ccc(C(=O)Nc2c(Cl)cc(Cl)cc2C(=O)N2CCC(C)CC2)cc1
-5%	NS(=O)(=O)c1ccc(S(=O)(=O)N(Cc2ccccc2F)CC2CCCO2)cc1 (stereo unspecified)
-5%	CCOC(=O)CC1C(=O)NCCN1C(=O)c1ccc(F)cc1F (stereo unspecified)
?	Cc1cccc(C(=O)Nc2sc(C)c(-c3ccccc3)c2C#N)c1

New compounds follow:
HPGD inh	molecule
?	COc1ccc(/C=C(\C#N)C(=O)OCC(=O)NCc2ccccc2)cc1
?	COC(=O)C1=C(C)NC2=C(C(=O)CCC2)C1c1cccc(C)n1 (stereo unspecified)
i	CCN(CC)S(=O)(=O)c1ccc2oc(C(=O)Nc3ccc(OC)cc3OC)c(C)c2c1
2%	O=C(NC1CCCCC1)C1c2ccccc2C(=O)N1Cc1ccco1 (stereo unspecified)
-9%	C[C@H](C(=O)C=[N+]=[N-])N1C(=O)c2ccccc2C1=O
-9%	CCOC(=O)c1c(NC(=S)NC(=O)c2ccco2)sc2c1CCCC2
0%	Cc1ccc(N(CC(=O)Nc2ccc(C)cn2)S(=O)(=O)c2c(C)nn(C)c2C)cc1
-15%	Cn1c(N)c(C(=O)COC(=O)C23CC4CC(CC(C4)C2)C3)c(=O)n(C)c1=O
-1%	Cc1c(NC(=O)CN2C(=O)c3ccccc3S2(=O)=O)c(=O)n(-c2ccccc2)n1C
?	COC(=O)c1ccc(NC(=O)CSc2nc3ccccc3c(=O)[nH]2)cc1
-7%	NC(=O)C1CCN(C2CC(=O)N(Cc3ccc(N4CCCC4=O)cc3)C2=O)CC1 (stereo unspecified)
-9%	Nc1c(S(=O)(=O)O)cc(S(=O)(=O)O)c2ccc(N=Nc3ccccc3)c(O)c12
-4%	Cc1cccc(NC(=O)C2=C(O)c3ccccc3N(C)S2(=O)=O)c1
-12%	CCOC(=O)C1=C(N)Oc2c(oc(CO)cc2=O)C1c1ccc(F)cc1 (stereo unspecified)
-11%	CCOC(=O)N1CCC(N2Cc3cccc(C(=O)Nc4cc(F)ccc4F)c3C2=O)CC1
-8%	Cc1cc2cc(CNC(=S)Nc3ccc(OC(F)(F)F)cc3)ccc2[nH]1
-11%	CCCN1C(=O)/C(=C/c2cc(C)n(C)c2C)SC1=Nc1ccc(OCC)cc1
-5%	COc1cccc(C(C(=O)NC2CCCCC2)N(CC2CCCO2)C(=O)CNC(=O)c2ccco2)c1 (stereo unspecified)
-14%	COc1ccc(/C=N/NC(=O)C(N)=O)c(OC)c1OC
-7%	CC(C)Nc1nc(NC(C)C)nc(N(C)N)n1
14µM*	Cc1ccc2c(c1)N(C(=O)CCC(=O)N1CCc3ccccc3C1)CCO2
-11%	C=CCn1c(SCC(=O)Nc2ccc3c(c2)CCC3)nnc1-c1cccs1
-13%	Cc1cccc(-n2c(-c3ccco3)n[nH]c2=S)c1
-9%	O=C(COC(=O)CCC(=O)c1cccs1)NCc1ccco1
-15%	COc1ccc(CCCc2nnc(SCC(=O)Nc3nccs3)n2C)cc1C
22µM*	O=c1[nH]c2ccc(NC(=S)Nc3ccccc3Cl)cc2[nH]1
-3%	CCN(CC)c1cc(Oc2ccccc2)ncn1
-4%	Clc1ccccc1CN(Cc1ccccc1)C(c1cccs1)c1nnnn1C1CCCC1 (stereo unspecified)
0%	O=C(NCc1cccs1)C1CCN(S(=O)(=O)c2ccc(Br)s2)CC1
1%	CCC(=O)Nc1ccc(F)c(Cl)c1
-3%	Cc1nc2c([nH]1)C1(CCN(Cc3ccccc3)CC1)C(C#N)=C(N)O2
-3%	O=C(NCc1ccco1)c1n[nH]c(=O)c2ccccc12
7.9µM*	O=C(NCCc1ccccc1)c1nc2c(nnn2Cc2ccccc2Cl)c(=O)[nH]1
1%	CCCCCC(CC(=O)O)C(=O)O (stereo unspecified)
-3%	O=C(Nc1ccccc1Cl)N1CCN(C/C=C/c2ccccc2)CC1
-16%	COc1ccc(CNC(=O)c2c(C)nc3ccccn23)cc1
?	Cc1ccc(C=Nc2ccccc2C(N)=O)o1
?	Cc1nc2cc(-c3ccccc3)nn2c(C)c1CCC(=O)NCc1ccco1
-6%	COC(=O)c1ccccc1NC(=O)C1CCN(C(=O)c2ccc(OC)cc2)CC1
?	O=S(=O)(c1ccccc1)N1CCN(c2ncnc3sc(-c4ccccc4)cc23)CC1
?	C[C@@H]1C(c2ccccc2)=NN(c2ccccc2)[C@H]1C(=O)N1CCOC1=O
-11%	Cc1ccc(N(CC(=O)N2CCN(c3ccc(F)cc3)CC2)S(=O)(=O)c2c(C)nn(C)c2C)cc1
-11%	Cc1ccc2oc(=O)n(CCCOc3ccccc3)c2c1
-16%	Cc1ccc(NC(=S)NCc2ccc3c(c2)OCO3)cc1C
2%	CCOC(=O)Cn1cc(C(=O)OC)c2ccccc21
14µM*	CC(C)c1ccc(/C=C/C(=O)N2CCCCCC2)cc1
?	CC(C)c1cc(NCC2CCCO2)n2c(nc3ccccc32)c1C#N (stereo unspecified)
-8%	COC1(OC)C(/C=C/c2ccc(Cl)cc2)C(C#N)(C#N)C1(OC)OC (stereo unspecified)
-14%	O=C(CN1CCN(C(=O)c2cccs2)CC1)NC1CCCCC1
-18%	CCOC(=O)C1C(C(=O)OC)=C(c2ccc(OC)cc2)c2ccc(OC)cc2N1S(=O)(=O)C(F)(F)F (stereo unspecified)

Reformatted with bars between the fields: 19 of the compounds above
SMILES | HPGD inh
O=C(NCc1ccco1)c1n[nH]c(=O)c2ccccc12 | -3%
O=C(NCCc1ccccc1)c1nc2c(nnn2Cc2ccccc2Cl)c(=O)[nH]1 | 7.9µM*
CCCCCC(CC(=O)O)C(=O)O (stereo unspecified) | 1%
O=C(Nc1ccccc1Cl)N1CCN(C/C=C/c2ccccc2)CC1 | -3%
COc1ccc(CNC(=O)c2c(C)nc3ccccn23)cc1 | -16%
Cc1ccc(C=Nc2ccccc2C(N)=O)o1 | ?
Cc1nc2cc(-c3ccccc3)nn2c(C)c1CCC(=O)NCc1ccco1 | ?
COC(=O)c1ccccc1NC(=O)C1CCN(C(=O)c2ccc(OC)cc2)CC1 | -6%
O=S(=O)(c1ccccc1)N1CCN(c2ncnc3sc(-c4ccccc4)cc23)CC1 | ?
C[C@@H]1C(c2ccccc2)=NN(c2ccccc2)[C@H]1C(=O)N1CCOC1=O | ?
Cc1ccc(N(CC(=O)N2CCN(c3ccc(F)cc3)CC2)S(=O)(=O)c2c(C)nn(C)c2C)cc1 | -11%
Cc1ccc2oc(=O)n(CCCOc3ccccc3)c2c1 | -11%
Cc1ccc(NC(=S)NCc2ccc3c(c2)OCO3)cc1C | -16%
CCOC(=O)Cn1cc(C(=O)OC)c2ccccc21 | 2%
CC(C)c1ccc(/C=C/C(=O)N2CCCCCC2)cc1 | 14µM*
CC(C)c1cc(NCC2CCCO2)n2c(nc3ccccc32)c1C#N (stereo unspecified) | ?
COC1(OC)C(/C=C/c2ccc(Cl)cc2)C(C#N)(C#N)C1(OC)OC (stereo unspecified) | -8%
O=C(CN1CCN(C(=O)c2cccs2)CC1)NC1CCCCC1 | -14%
CCOC(=O)C1C(C(=O)OC)=C(c2ccc(OC)cc2)c2ccc(OC)cc2N1S(=O)(=O)C(F)(F)F (stereo unspecified) | -18%

An excerpt from above in order of the HPGD inh value, high to low:
canonical_smiles	HPGD inh
O=c1[nH]c2ccc(NC(=S)Nc3ccccc3Cl)cc2[nH]1	22µM*
CC(C)c1ccc(/C=C/C(=O)N2CCCCCC2)cc1	14µM*
O=C(NCCc1ccccc1)c1nc2c(nnn2Cc2ccccc2Cl)c(=O)[nH]1	7.9µM*

(next part)
HPGD inh	molecule
-18%	O=C(O)c1ccc(NS(=O)(=O)c2ccc3nnn(O)c3c2)cc1
3%	CCCCC(=O)Nc1cccc2c1C(=O)N(c1ccccc1)C2=O
2%	CN(CC(=O)NCC1CCCO1)S(=O)(=O)c1cc(Cl)ccc1Cl (stereo unspecified)
?	O=C(/C(Br)=C/Nc1cc(Cl)ccc1Cl)C(F)(F)F
-15%	Cn1nc(-c2ccccc2)c(-c2nc(-c3ccc(Cl)cc3)no2)c1Cl
3%	Cc1nc2ccccc2c(=O)n1NC(=O)Nc1ccccc1
-13%	O=C(NCc1ccco1)c1ccc2c(=O)n(CC3CCCO3)c(=S)[nH]c2c1 (stereo unspecified)
-6%	COc1ccc(C(=O)CN2C3=NCCCN3c3ccccc32)cc1OC
-11%	CCOc1cc(C)c(Cl)cc1S(=O)(=O)N(CC)CC
-15%	CC(C)[C@H](NC(=O)OCc1ccccc1)C(=O)N[C@H](C=O)Cc1ccccc1
-18%	CC(N=c1ccccn1C(=O)Nc1ccc(Cl)cc1)c1ccco1 (stereo unspecified)
-6%	Cc1ccccc1CSc1nnc(C)n1N
-11%	N#CCCN1CCN(S(=O)(=O)c2ccc(S(=O)(=O)N3CCOCC3)cc2)CC1
-4%	CCN1CCN(Cc2ccc(NC(=O)Nc3ccc(SC)cc3)cc2)CC1
?	C=CCOc1c(Br)cc(C2C3=C(CCCC3=O)N(C)C3=C2C(=O)CCC3)cc1OCC
-3%	CCn1ncc(/C=N/N=C2\CCC3C4CCc5cc(O)ccc5C4CCC23C)c1C (stereo unspecified)
3%	CCSc1ncc(C#N)c(N)n1
-1%	CS(=O)(=O)N1CCCC(C(=O)N2CCOCC2)C1 (stereo unspecified)
-12%	Cc1ccc(CC2CC(=O)N(CCc3ccc4c(c3)OCO4)C2=O)cc1 (stereo unspecified)
?	Cc1cccc(-n2cnc3cc([N+](=O)[O-])ccc32)c1
-4%	NC(=O)c1ccccc1NS(=O)(=O)c1cccs1
-9%	Cc1cccc(/N=C/c2c(O)ccc3oc4c(c23)CCCC4)n1

From PubChem
